HNF4A DNA FP – change in binding of human HNF4 alpha to DNA | P41235 | HNF4a-FITC DNA binding, fluorescence polarization, 1 h | activity change, % at 10 µM | hit rate 0.3% among 360,000; in the data active = activity change above about 30%, passing the limit was not always enough;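 note: controls were the assay level and a saturating level of protein; the project sought stronger binding though the title names inhibitors; some compounds called inactive have numbers as strong as hits; positive values seem to mean higher polarization but the record does not say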
Target sequence (P41235 whole entry, looked up): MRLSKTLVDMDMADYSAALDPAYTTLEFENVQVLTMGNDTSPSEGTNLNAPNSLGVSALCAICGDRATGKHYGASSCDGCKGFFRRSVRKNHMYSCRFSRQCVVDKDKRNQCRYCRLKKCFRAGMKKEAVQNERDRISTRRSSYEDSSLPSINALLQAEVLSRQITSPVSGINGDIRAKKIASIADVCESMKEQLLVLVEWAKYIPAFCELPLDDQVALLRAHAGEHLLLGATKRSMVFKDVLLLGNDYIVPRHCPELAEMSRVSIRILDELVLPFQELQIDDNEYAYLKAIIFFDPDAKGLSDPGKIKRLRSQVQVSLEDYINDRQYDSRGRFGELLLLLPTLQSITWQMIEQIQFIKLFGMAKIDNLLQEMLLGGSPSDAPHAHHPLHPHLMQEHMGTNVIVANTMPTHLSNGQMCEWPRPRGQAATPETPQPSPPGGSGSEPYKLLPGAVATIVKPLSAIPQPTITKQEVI
FGF22 binding – binders of recombinant human FGF22 by thermal shift. calls only at 9.99 µM. SYPRO orange fluorescence; percent of sucrose octasulfate shift, DMSO zero. hit rate 1.5% among 340,000. AID 651658;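 active = melting point raised past a set limit in the mean and every replicate; inconclusive = no clear call; three in four hits are not shown here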
Target sequence (Q9HCT0 whole entry, looked up): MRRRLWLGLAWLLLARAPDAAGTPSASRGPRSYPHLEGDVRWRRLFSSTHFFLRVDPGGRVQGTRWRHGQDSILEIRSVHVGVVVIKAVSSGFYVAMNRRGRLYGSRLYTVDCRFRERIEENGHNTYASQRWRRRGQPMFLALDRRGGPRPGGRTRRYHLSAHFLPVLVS
AF4-AF9 inh – MLL-AF4/AF9 protein interaction inhibition. AID 651704. AlphaScreen, biotin-AF4 peptide binding to FLAG-AF9. inhibition, % at 10 µM. P42568. hit rate 0.47% among 350,000;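 active = every replicate reaching a set inhibition limit, whatever the replicate mean, cut at about 25% in these data; inconclusive = mean inhibition reaches that limit but some replicates miss it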;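 note: 0% = plate neutral control median and 100% = total signal loss; the record names both 10 and 1 µM as test concentration; the first replicate is given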
UCH37 DUB inh – inhibitors of human deubiquitinating enzyme UCH37 | inhibition, % (test concentration not listed) | Q9Y5K5 | hit rate 0.33% among 330,000 | AID 588478 | purified proteasome/UCH37, Ub-AMC cleavage fluorescence;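 active = mean of two replicates above 20%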;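 note: 0% = compound-free wells with enzyme and 100% = wells lacking proteasome; stock transfer was 100 nL into about 20 µL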
Target sequence (Q9Y5K5 whole entry, looked up): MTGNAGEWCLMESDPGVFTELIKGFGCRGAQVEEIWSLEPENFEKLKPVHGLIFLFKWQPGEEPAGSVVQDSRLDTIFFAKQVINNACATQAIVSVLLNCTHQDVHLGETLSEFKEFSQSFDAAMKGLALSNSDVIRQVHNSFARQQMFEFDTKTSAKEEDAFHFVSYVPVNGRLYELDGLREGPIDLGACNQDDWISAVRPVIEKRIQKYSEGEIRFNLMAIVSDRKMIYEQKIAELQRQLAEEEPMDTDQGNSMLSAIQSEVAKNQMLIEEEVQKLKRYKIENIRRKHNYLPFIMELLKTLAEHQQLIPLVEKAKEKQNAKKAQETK
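Reagent: Ub-AMC substrate; assay system: Proteasome-associated human UCH37 deubiquitinase; controls: no-proteasome and no-compound wells; read-out: % inhibition of Ub-AMC cleavage fluorescence; timing: 30 min preincubation with enzyme, 25 min cleavage at room temperature; signal: AMC fluorescence from Ub-AMC cleavage, excitation 355 nm, emission 460 nm; buffer or medium: Tris-HCl pH 7.4 plus ovalbumin, ATP-MgCl2, DTT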
RanGTP-Imp inh – disruptors of Ran-importin-beta complex formation – biochemical, FRET, CFP-Ran, YFP-importin-beta, homogeneous, primary screen; cell-free CFP-Ran/YFP-importin-beta FRET ratio; AID 2216; inhibition, % (concentration not given with the values); hit rate 1.1% among 300,000;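 active = most replicates above 15%; inconclusive = exactly half above 15%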;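 note: 0% = DMSO wells and 100% = Ran loaded with GDP instead of GTP; wells of about 40 µL received 100 nL stock; the first replicate is given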
Vif A3G – HIV-1 Vif–A3G interaction blockers – biochemical, TR-FRET, GST-Vif 1-94, biotin-A3G peptide, dose response retest, primary screen (AID 1117319); TR-FRET GST-Vif / biotin-A3G peptide binding; higher % means a stronger effect; test concentration not given here; strong numbers were not always called active; inhibition, %; hits with a dose series show IC50 in µM; hit rate 0.57% among 260,000;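 active = above the screen mean plus three standard deviations and confirmed in dose response; inconclusive = results disagree or hit not tested in dose response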;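 note: Vif residues 1-94 fused to GST binding biotinylated APOBEC3G peptide 110-148; 0% = full assay without inhibitor and 100% = GST in place of GST-Vif; retest series ran down from 100 µM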
Ecoli growth – blocks Escherichia coli growth; OD600, 23 h; hits give low values; OD600 absorbance (no concentration beside the values); hit rate 0.21% among 330,000; AID 1053175;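 active = OD600 absorbance below the run mean of sample wells minus 3.6 SD, in any replicate, cut at about 0.56 in these data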;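 note: stock transfer was 300 nL into about 60 µL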
Starred values were filed as active, the others as inactive; i = inactive; u = inconclusive; x = not tested or not shown; & = joins results of further samples.

RanGTP-Imp inh,UCH37 DUB inh,HNF4A DNA FP,FGF22 binding,Ecoli growth,AF4-AF9 inh,Vif A3G,mol
x,3.0,1.4,i,0.692,-2.6,x,Cc1c(NS(=O)(=O)c2cccc(C(=O)N3CCCC3)c2)c(=O)n(-c2ccccc2)n1C
x,2.8,-2.7,i,0.668,-0.7,x,NC(N)=NCc1cccc(I)c1
-4.1,x,-7.2,i,x,5.3,6.5%,COc1ccccc1NC(=O)C(=N\O)/C(C)=N/O
-2.7,4.9,1.0,i,0.665,-1.9,x,COc1ccc(C(=O)NC2CC(C)(C)Cc3c2cnn3-c2ccccc2)cc1OC (stereo not drawn)
-0.9,6.7,-0.1,i,0.693,-3.1,x,C=CCn1c(O)c(/C=C2\C=NN=C2c2ccccc2)sc1=S
-3.0,0.0,-1.4,i,0.639,-1.7,-3.4%,O=C(COC(=O)CNC(=O)c1ccc(Cl)c([N+](=O)[O-])c1)NC(=O)CN1CCCC1=O
1.4,-7.1,20.8,x,0.664,x,3.6%,COc1ccc(-c2oc(NC(C)=O)c(C#N)c2-c2ccc(OC)cc2)cc1
1.3,1.9,-1.3,i,0.676,0.0,-5.4%,Cc1cc2nc(N3CCN(C(=O)c4cccs4)CC3)sc2cc1C
x,1.2,-5.7,i,x,-1.2&-2.4,x,C[C@H](CO)N1C[C@H](C)[C@@H](CN(C)S(=O)(=O)c2ccc(F)cc2)Oc2ccc(NC(=O)c3ccncc3)cc2C1=O
1.8,-32.6,5.5,x,0.668,x,27.0%,COc1ccc(-c2ncc3ccccn23)cc1
-0.7,14.3,0.4,i,0.635,-1.3,x,O=C(CNC(=O)c1ccco1)N=Nc1c(O)[nH]c2ccc([N+](=O)[O-])cc12
-1.1,-0.6,-0.3,x,0.629,x,3.4%,COc1cccc(NC(=O)CSc2nnc(Cn3cnc([N+](=O)[O-])n3)n2C)c1
x,x,-5.5,i,x,2.1,-2.2%,CC[C@H](C)[C@H]1CNC(=O)C(=O)N1CC1CCN(CCCc2ccc(OC)c(OC)c2)CC1
-2.9,-0.2,-0.2,x,x,x,5.6%,C#CCOCCOCCOCCNc1nc(N2CCN(C(=O)C([C@@H](C)CC)n3cc(C(N)Cc4ccc(O)cc4)nn3)CC2)nc(N2CCN(C(=O)[C@H](CCC(=O)O)n3cc(C(N)Cc4ccc(O)cc4)nn3)CC2)n1 (stereo partly drawn)
4.7,6.4,5.2,i,0.707,-5.5,x,CC1=NN(C(C#N)c2ccccc2)C(C)(C)C1 (stereo not drawn)
-1.4,-6.3,-0.1,x,0.751,x,3.2%,CC(C)Cn1c2c(c(O)c(C(=O)Nc3ncccc3O)c1=O)CCCC2
x,1.5,0.5,i,0.642,-2.3,-6.1%,CC(C)CN(C(=O)C1=NN(c2ccccc2)C(=O)CC1)c1c(N)n(Cc2ccccc2)c(=O)[nH]c1=O
0.9,x,2.7,i,x,-8.1,x,O=C(COc1ccc(/C=N/NC(=O)c2ccncc2)cc1)Nc1ccc([N+](=O)[O-])cc1
-1.2,-0.4,-1.5,i,0.706,1.7,1.2%,Cc1cc(C)c(C)c(S(=O)(=O)N[C@@H](C)C(=O)OCC(N)=O)c1C
2.7,x,1.1,x,x,x,-0.1%,O=C(N/N=C/c1ccccn1)c1ccco1
-0.4,3.3,-0.4,x,x,x,4.5%,CCO[C@@H]1OC(C(=O)N2CCCCCCC2)=C[C@H](c2cn(C(C)=O)c3ccccc23)[C@H]1CCCO
1.0,x,-1.5,x,x,x,2.2%,Cc1ccsc1/C=N/NC(=O)c1c[nH]c2ccccc12
-1.3,1.2,2.6,i,0.684,1.5,-1.1%,Cc1cc(Cl)ccc1C(=O)C1CCCN(C(=O)CCn2cncn2)C1 (stereo not drawn)
0.5,0.7,2.5,i,0.701,-7.1,10.3%,CC(C)=NNc1nc2c(c(=O)[nH]c(=O)n2C)n1CCCc1ccccc1
-0.8,3.2,-0.7,i,0.667,1.8,-1.3%,COc1cccc(OCCOc2ccc(/C=C3\C(=N)N4N=C(S(C)(=O)=O)SC4=NC3=O)cc2OC)c1
0.8,3.1,1.8,i,0.721,3.9,x,Cc1nc(C(=O)N2CCc3c([nH]c4ccccc34)C2c2cc(F)ccc2F)cs1 (stereo not drawn)
-3.9,4.8,-0.6,x,0.7,x,0.8%,COc1ccccc1S(=O)(=O)Cc1ccc(C(=O)NCCN2CCCC2)o1
0.3,-0.6,-0.9,x,0.716,x,-3.1%,CS(=O)(=O)N1CCN(c2ccccc2NC(=O)c2cccnc2)CC1
0.2,2.7,1.4,x,0.767,x,11.7%,Cc1cccc(C(=O)Nc2c(C#N)c(C)c(C)n2Cc2ccccc2)c1
-2.5,-41.9,-2.7,x,0.672,x,-1.9%,O=C(O)Cn1c(=O)cnc2ccccc21
-0.9,4.6,1.9,i,0.665,-2.6,x,Cc1oc(-c2ccc(Cl)cc2)nc1CN1CCCC(C(=O)NC2CC2)C1 (stereo not drawn)
x,-1.2,3.8,i,0.674,1.8,-0.8%,C1CC1C(=NN=C(C1CC1)C1CC1)C1CC1
2.0,1.0,-4.8,i,0.686,-0.8,x,CC(=O)Nc1ccc(S(=O)(=O)N2CCN(C(=O)N3CCCC3)CC2)cc1
x,x,1.4,i,x,5.6,x,CCc1nc2c(OCCn3cccc3)cccn2c1N(C)C(=O)c1ccc(C)cc1
3.4,-5.8,-0.9,i,0.659,-6.9,x,COc1ccc(-c2nnc(NC(=O)c3ccco3)s2)cc1
3.2,1.2,0.7,x,0.727,x,78.4%,COc1ccc(NC(=O)C2CCCN(S(=O)(=O)c3cccnc3)C2)cc1 (stereo not drawn)
-0.5,-13.6,2.7,i,0.691,0.6,-5.3%,COc1ccc(-c2cc(C(=O)NNC(=O)c3csc(N4CCOCC4)n3)c3ccccc3n2)cc1OC
-1.5,2.2,2.4,i,0.666,-1.4,-35.3%,CCNc1nc(NC(C)(C)C)nc(Oc2ccc(=O)n(-c3ccccc3)n2)n1
-0.8,10.8,-0.4,i,x,-4.9,x,C[C@H](NC(=O)c1nc[nH]c1C(=O)NCC(=O)OCc1ccccc1)C(=O)OC(C)(C)C
x,4.9,-1.2,x,0.681,x,-1.7%,COc1ccccc1NS(=O)(=O)c1ccc(C(=O)Nc2ncccc2O)cc1

Complete entries from above. Order of screens: RanGTP-Imp inh	UCH37 DUB inh	HNF4A DNA FP	FGF22 binding	Ecoli growth	AF4-AF9 inh	Vif A3G
CC(C)Cn1c2c(c(O)c(C(=O)Nc3ncccc3O)c1=O)CCCC2 as listed: -1.4	-6.3	-0.1	x	0.751	x	3.2%
COc1ccc(NC(=O)C2CCCN(S(=O)(=O)c3cccnc3)C2)cc1 (stereo not drawn) as listed: 3.2	1.2	0.7	x	0.727	x	78.4%

Later entries.
RanGTP-Imp inh,UCH37 DUB inh,HNF4A DNA FP,FGF22 binding,Ecoli growth,AF4-AF9 inh,Vif A3G,mol
-0.4,2.6,4.2,i,0.655,0.1,x,CCN1CCN(CC(=O)Nc2ccc(N(C)C)cc2)CC1
-6.2,2.5,3.7,x,0.731,x,-3.4%,COc1ccccc1NC(=O)c1c(Nc2ccccc2F)sc(C(=O)Nc2cccc(Cl)c2)c1N
-0.6,7.6,44.2*,i,0.679,3.0,-5.5%,N#Cc1c(Nc2cccc(F)c2)sc2c(O)cc(=O)[nH]c12
-0.9,2.6,-0.7,i,x,-4.9,x,CCN(CC)CCCN=C1N[C@@H](c2ccccc2)C(C(=O)OC)=C(C)N1CC
1.1,1.0,4.0,i,0.702,-5.4,x,NS(=O)(=O)c1cc(C(=O)OCC(=O)c2ccc3c(c2)OCCO3)ccc1Cl
-2.6,-1.0,-0.5,x,0.792,x,2.9%,O=c1c(Cc2ccc(F)cc2)c(O)ccn1C1CC1
-0.8,1.0,-1.4,i,0.624,0.6,-5.2%,c1ccc(Cn2cc(CN3CCCCO3)c(-c3ccc4c(c3)OCO4)n2)cc1
4.4,-0.3,4.3,x,0.713,x,0.2%,Clc1ccc(CSc2nnc([C@@H]3CCCN3)o2)cc1
6.8,3.9,0.1,i,0.696,-10.1,2.2%,COCCNC(=O)c1cc(S(=O)(=O)N2CCOCC2)ccc1SCc1cccc(OC)c1OC
1.0,-0.4,1.0,x,0.723,x,8.1%,Cc1ccc(NC(=O)CSc2nc(NS(=O)(=O)c3ccc(C)cc3)cc(=O)[nH]2)cc1
39.6*,1.8,1.4,i,0.808,2.0,3.0%,CC1CN(c2cc(=O)n(-c3cccc(Br)c3)c(=O)[nH]2)CC(C)O1 (stereo not drawn)
4.5,4.2,2.2,i,0.697,1.8,-10.4%,CCN1CCN(S(=O)(=O)Cc2ccccc2Cl)CC1
x,-11.1,1.6,x,0.722,x,-12.8%&-0.5%,CCCN1Cc2cccc(C(=O)Nc3ccc(S(=O)(=O)N4CCCCCC4)cc3)c2C1=O
0.5,0.9,-0.5,x,0.656,x,17.1%,CC(=O)NC1=NN(C(C)=O)C2(CCCCC2)S1
-1.8,-2.9,-2.4,x,0.76,x,-3.2%,O=C(OCc1ccc2c(c1)OCO2)c1ccc(S(=O)(=O)N2CCCCC2)cc1
4.1,x,2.7,x,x,x,-4.7%,CNC(=S)N/N=C(\C)c1ccc(-n2ccnc2)cc1
0.7,5.6,3.0,i,0.725,-1.5,-9.0%,O=S(=O)(NCCc1ccc(Cl)cc1)c1cccs1
1.4,4.2,3.7,i,0.59,1.0,x,COc1cc(NC(=O)c2ccc(OC)c([N+](=O)[O-])c2)ccc1NC(=O)c1ccco1
x,x,-1.5,i,x,-3.0,4.6%,C=CCC1CCCCC1=C(C#N)c1ccccc1 (stereo not drawn)
-4.9,33.9*,-1.1,x,0.723,x,-4.5%,COc1ccc(C2/C(=C(\O)c3ccc(OC)c(Cl)c3)C(=O)C(=O)N2CCN(C)C)cc1 (stereo not drawn)
0.2,4.3,0.5,i,0.685,-8.2,-5.4%,Cc1ccc(-n2c(-c3ccncc3)n[nH]c2=S)c(C)c1
0.3,0.4,0.7,x,0.734,x,-0.5%,CCCN(C(=O)c1cccs1)c1nnc(-c2ccncc2)s1
-0.5,1.4,-1.5,i,0.677,3.6,x,CCOCCCNCc1cccc(OCc2ccc(F)cc2)c1
-2.4,0.8,-4.2,x,0.659,x,u,CCCCCCCCCCCNC(=O)c1ccoc1C
x,x,0.2,i,x,-1.9,-2.8%,OCC1OC(n2ccc3c2ncn2ncnc32)C(O)C1O (stereo not drawn)
x,-1.9,1.3,i,0.672,-2.3,-4.4%,CSc1cc(SC)ncn1
-0.6,7.0,0.3,i,0.691,1.6,-3.8%,COc1ccc(CCN(C)C(=O)COc2ccc(C(=O)c3ccccc3)cc2)cc1OC
x,x,-4.1,i,x,-0.3,-7.0%,O=C(Nc1c(Br)cc2c(c1Br)Cc1ccccc1-2)C(Cl)Cl
2.0,-1.1,-4.2,i,0.676,-4.5,x,COC(=O)COc1ccc2c(=O)c(-c3ccccc3)coc2c1
-1.0,x,7.0,x,x,x,-6.7%,CC1CCC/C(=N\NC(=S)Nc2ccccc2)C1 (stereo not drawn)
u,2.7,2.8,i,0.736,-1.6,-0.5%,COc1cc2cccc(OC)c(=O)c2c(OC)c1OC
-4.7,3.3,5.3,i,0.648,0.0,-4.4%,O=S(=O)(Nc1ccc(-c2ccc3nncn3n2)cc1)c1ccc(Cl)s1
1.0,3.3,1.6,i,0.672,-4.5,x,O=C(NCc1ccccc1)c1ccc2c(=O)n3c(nc2c1)CCCCC3
0.1,-1.3,2.6,i,0.69,-4.6,x,O=C(CN(C(=O)c1csnn1)c1cccc(F)c1)NC1CCCC1
0.7,2.1,0.8,i,0.711,1.1,x,CCn1c(=O)n(CC)c2cc(N3CCCC3)c(NC(=O)c3ccccc3Br)cc21

An excerpt. The share of hits here may be higher or lower than overall.
